# Compound activity deposited in PubChem by National Center for Advancing Translational Sciences (NCATS).
# AmpC nodet inh = blocks E. coli AmpC beta-lactamase in absence of detergent; P00811; actives 1.8% (n = 71,000); AID 585; Potency, µM (series often up to 28.7 µM), for the others: top-dose activity change, negative = inhibition; AmpC nitrocefin hydrolysis, absorbance 480 nm, no detergent; potencies from a single point are estimates; active = falling curve, for most hits resting on a single point; inconclusive = weak or doubtful change; inactive = flat or rising curve; note: % of control where 0% means no effect; about half of the hits show no inhibition at the top dose; a quarter of the inactives give rising signals
# Target sequence (P00811 whole entry, looked up): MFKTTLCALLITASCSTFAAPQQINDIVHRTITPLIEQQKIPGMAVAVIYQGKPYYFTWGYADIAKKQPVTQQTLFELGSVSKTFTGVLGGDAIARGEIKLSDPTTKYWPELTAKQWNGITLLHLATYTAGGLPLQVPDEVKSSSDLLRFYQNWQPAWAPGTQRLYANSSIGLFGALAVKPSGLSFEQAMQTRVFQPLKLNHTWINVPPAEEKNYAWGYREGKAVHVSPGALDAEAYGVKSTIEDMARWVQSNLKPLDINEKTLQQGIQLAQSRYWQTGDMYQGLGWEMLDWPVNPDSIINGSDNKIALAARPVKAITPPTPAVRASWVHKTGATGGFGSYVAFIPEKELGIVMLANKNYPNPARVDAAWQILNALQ
#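 Enzyme, pH 7.0 phosphate. Compound titrations were pre-incubated with AmpC for 15 min at room temperature before nitrocefin (stock 800 uM) addition; product formation was recorded at 480 nm every 20 s for 4 min.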
# * marks the source's active call; other numbers are inactive results; u = inconclusive; & = joins results of further samples; [ ] = another dose, or the depositor's remark. Potency is the fitted concentration of half-maximal effect.
molecule	AmpC nodet inh
CCN(CC)C(=O)C1CCCN(Cc2ccccc2C(F)(F)F)C1 (stereo unspecified)	27%
COc1ccc(Nc2nc(N3CCCC3)nc3ccccc23)c(OC)c1	54%
Cc1nc2cc(-c3cccc(Cl)c3)nn2c(N2CCN(C(=O)c3ccco3)CC2)c1C	68%
CCN(CC)S(=O)(=O)c1ccc(C(=O)NCC(c2cccs2)N2CCOCC2)cc1 (stereo unspecified)	66%
Nc1ccc(S(=O)(=O)Nc2ccnn2-c2ccccc2)cc1	-16%[12.8 µM]
O=C(O)C1CC(=O)N(CCOc2ccccc2)C1 (stereo unspecified)	-3%
COC(=O)CN(c1ccc(C(C)C)cc1)S(=O)(=O)c1c(C)[nH]c(=O)[nH]c1=O	4µM*[single pt active]
CC1(C)C2CCC1(CS(=O)(=O)NCc1ccc(C(=O)O)cc1)C(=O)C2 (stereo unspecified)	-12%
CCCn1c(SCC(=O)Nc2nnc(C(C)C)s2)nc2c1c(=O)n(C)c(=O)n2C	48%
CC/C=C/C#N	7%
CCN(CC)CCCN1C(=O)C(O)=C(C(=O)c2ccc(C)o2)C1c1ccco1 (stereo unspecified)	-6%
COc1ccc(OC)c(S(=O)(=O)n2nc(-c3ccccc3)cc2N)c1	-5%
CN1CCN(c2nc(-c3ccc(N(C)C)cc3)nc3ccccc23)CC1	96%
CCOC(=O)c1ccccc1NC(=O)c1ccc2c(=O)n3c(nc2c1)CCCCC3	25%
O=C(O)CCCCCNC(=O)CCn1nnc2ccccc2c1=O	4%
COCCn1c(=S)[nH]c2cc(C(=O)NCC3CCCO3)ccc2c1=O (stereo unspecified)	1%
CCC(C)C(NC(=O)c1ccccc1NC(=O)c1ccco1)C(=O)NC1CCCCC1 (stereo unspecified)	40%
C=CCn1c(Cc2ccc(OC)cc2)nnc1SCc1nc2ccccc2c(=O)[nH]1	16%
O=C(Nc1cccc(Oc2c(F)c(F)c(F)c(F)c2F)c1)N1C[C@@H]2C[C@@H](C1)c1cccc(=O)n1C2	93%
COCCNC(=O)c1cn(C)c2ccc(S(=O)(=O)N(C)C3CCCCC3)cc2c1=O	80%
Cn1c(=O)c2c(nc(NCCO)n2C)n(C)c1=O	-4%
CCc1nnc(NC(=O)CSc2nc3c(cc2C#N)CCCC3)s1	-16%
CCc1c(C)nc(SCCOc2ccc(OC)cc2)[nH]c1=O	-1%
Fc1ccc(-c2nnc(-c3ccc(Cl)cc3Cl)o2)cc1	15%
COC(=O)[C@H]1[C@H]2C[C@H]3c4[nH]c5ccccc5c4CCN3C[C@@H]2CC[C@@H]1O	0%&16%

# Reformatted: 4 of the compounds above.
> CCN(CC)CCCN1C(=O)C(O)=C(C(=O)c2ccc(C)o2)C1c1ccco1 (stereo unspecified)
  AmpC nodet inh: -6%
> COc1ccc(OC)c(S(=O)(=O)n2nc(-c3ccccc3)cc2N)c1
  AmpC nodet inh: -5%
> CN1CCN(c2nc(-c3ccc(N(C)C)cc3)nc3ccccc23)CC1
  AmpC nodet inh: 96%
> CCOC(=O)c1ccccc1NC(=O)c1ccc2c(=O)n3c(nc2c1)CCCCC3
  AmpC nodet inh: 25%

# (next part)
molecule	AmpC nodet inh
CN1CCN(c2ccc(NC(=O)c3ccc4c(c3)OCO4)cc2)CC1	3%
Cc1oc(-c2ccccc2F)nc1CS(=O)(=O)CC(=O)N1CCN(Cc2ccccc2)CC1	109%
COc1ccc(-c2nnc(SCc3cccc(C#N)c3)o2)cc1	11%
Cc1noc(C)c1-c1ccc2ncnc(NCc3ccccc3)c2c1	15%
O=C(NCCc1ccccc1)C1CCN(S(=O)(=O)N2CCCC2)CC1	-10%
CC(=O)c1cc(-c2ccccc2)[nH]c1N1CCCC1	2%
CC(C)CCN1CC(C(=O)N2CCN(c3ccc(F)cc3)CC2)CC1=O (stereo unspecified)	80%
CCC(=NCCO)c1c(O)n(-c2ccccc2)c(=O)[nH]c1=O	-7%
Cc1cc(C)c(C#N)c(SCC(=O)CC(=O)OC(C)C)n1	27%
O=C(c1ccncc1)N1CCC[C@@]2(CCN(Cc3cc(C(F)(F)F)cc(C(F)(F)F)c3)C2)C1	74%
Cc1nc2sc3c(c2c(=O)n1/N=C/c1ccco1)CCCC3	7%
CN1CCN(C(=O)CN2C(=O)CC(C)(C)S(=O)(=O)c3ccccc32)CC1	-8%
COc1ccc(NC(=O)c2ccc(=O)oc2)cc1	-14%
Cn1c(=O)c(=O)n(C)c2cc(S(=O)(=O)N3CCN(Cc4ccccc4)CC3)ccc21	21%
CC1(C)NC(=O)NC2(C)NC(=O)NC(C)(C)C12 (stereo unspecified)	-9%
CC(C)Cc1nc(N2CCC(C(N)=O)CC2)c2nnn(Cc3ccccc3)c2n1	9%
O=C1C2CCCN2C(c2cccc(Br)c2)N1c1ccc(F)cc1 (stereo unspecified)	37%
CCOC(=O)N1CCN(c2c(-c3ccc(C(C)C)cc3)c(=O)c2=O)CC1	56%
CCC(=O)c1ccc(OC(=O)c2ccc(Br)o2)cc1	-2%
CC(=O)Nc1cc(N2C(=O)CCC2=O)ccc1Cl	-9%
Cc1ccc(-c2noc(CCC(=O)NCCN3CCOCC3)n2)cc1	32%
COc1ccc2nc(NC(=O)CSc3nc4ccccc4o3)sc2c1	11%
CCOC(=O)c1ccc(Oc2nc(NC)nc(SC)n2)cc1	22%
CC(C)N1C(=O)CCC1C(=O)NCCc1ccc(Cl)cc1 (stereo unspecified)	7%
CCCCOc1ccc(S(=O)(=O)n2c(C)nc3ccccc32)cc1	43%

# Later entries
compound	AmpC nodet inh
O=C1c2sc3nc4ccccc4n3c2C(=O)N1c1ccccc1Cl	-8%
Cc1ccc(OCC(=O)NCc2ccccn2)cc1	17%
COc1cccc(OC)c1OCCCc1c(C)n[nH]c1C	18%
Cc1ccc(OCC(=O)Nc2ccc(N3CCOCC3)cc2)cc1	3%
CN=C(Nc1cc(C)nn1CCC#N)c1ccccc1	-9%
CCOC(=O)c1ccccc1C(=O)OCC	-4%&-1%
CC(C)(C)c1nc(SCC(=O)NCc2ccco2)c2ccccc2n1	30%
O=C1CCCN1c1ccc(S(=O)(=O)N2CCC(c3ccccc3)CC2)cc1	11%
COc1ccccc1-c1c(C)nn2c(NCCN3CCCC3)cc(C)nc12	-4%
COc1ccc(C(c2nnnn2Cc2ccccc2)N2CCN(c3nc4ccccc4s3)CC2)cc1 (stereo unspecified)	14%
O=C(Nc1ccccc1C(=O)NCc1ccco1)c1ccccc1	-17%
CCOc1cccc2cc(-c3nnc(-c4ccccc4)o3)c(=O)oc12	-12%
C=CCc1cccc2cc(C(=O)OCC)c(=O)oc12	15%
CC(=O)NC(Cc1ccccc1)C(=O)N1CCN(C(=O)c2cccs2)CC1 (stereo unspecified)	14%
CCOc1ccc2[nH]c(=O)c(CN(CC3COCCO3)C(=O)C3CC3)cc2c1 (stereo unspecified)	4%
c1ccc(CCN2CN(CCCN3CCOCC3)c3nc4ccccc4n3C2)cc1	117%
CC(C)(C)C(=O)C(CO)(Oc1ccc(Cl)cc1)n1cncn1 (stereo unspecified)	17%
Cc1ccc(NC(=O)Cn2cc3c(n2)CCC(C)C3)cc1 (stereo unspecified)	-2%
COc1cc(C2NC(=O)c3ccccc3O2)cc(OC)c1OC (stereo unspecified)	33%
CC(=O)N=c1sc(S(N)(=O)=O)nn1C	-4%[12.8 µM]
CCOC(=O)N1CCC(N2Cc3cccc(C(=O)NCc4ccc5c(c4)OCO5)c3C2=O)CC1	77%
CN1CCCN(Cc2ccccc2C(F)(F)F)CC1	-8%
COc1ccc2c(c1)CCc1c-2n[nH]c1C(=O)O	-14%
Cc1nc(-c2ccccc2)sc1C(N)=O	-3%
COc1cc2c(cc1OC)[C@@]13CCN4CC5=CCO[C@H](CC(=O)O)[C@@H]([C@H]1N2)[C@H]5C[C@H]43	6%[5.75 µM]
Cn1cccc1Cc1nnc(SCC(=O)N2CCOCC2)n1-c1ccc(F)cc1	4µM*[single pt active]
O=C(NCC1COc2ccccc2O1)Nc1ccccc1F (stereo unspecified)	-6%
CCOC(=O)N1CCN(C(=O)C2CCCN(c3ncnc4c3sc3cccc(F)c34)C2)CC1 (stereo unspecified)	151%
CCSc1nc2c(c(=O)[nH]c(=O)n2C)n1CC(O)COc1ccccc1C (stereo unspecified)	53%
COC(=O)CN(c1ccc(OC)c(OC)c1)S(C)(=O)=O	-3%
Clc1ccc(-c2noc(CN3CCCCC3)n2)cc1	4%[5.75 µM]
N=C(N)SCC(=O)O	-7%[5.75 µM]
Cc1nc(SCc2ccc(Br)cc2)[nH]c(=O)c1C	-10%
Cc1ccc2oc(-c3cccc(NC(=O)C4CCCO4)c3)nc2c1 (stereo unspecified)	113%
CCCN(CCC)C(=O)c1c(C)[nH]c(C(=O)OCC)c1C	33%
Clc1nnc2ccc(-c3ccccc3)nn12	6%
O=C(CC1NC(=O)NC1=O)Nc1cccc2ccccc12 (stereo unspecified)	4%
CCc1nc(SCc2ccccn2)c2c(=O)n(C)c(=O)n(C)c2n1	8%
Cc1ccc2[nH]c(=O)c(CN(CCO)C(=O)NCc3ccccc3)cc2c1	33%
CC[C@]1(C2=NCCN2)Cc2ccccc2O1	31%&-4%
Cc1n[nH]c(=O)[nH]c1=O	3%[12.8 µM]
CCOC(=O)C1CCN(C(=O)Cc2c(F)cccc2Cl)CC1	7%
Cc1ccc(-c2nn3c(C)nnc3s2)cc1NC(=O)COc1ccc(Cl)cc1	17%
COc1ccc(N2CCN(C(=O)C3CCN(S(=O)(=O)N4CCOCC4)CC3)CC2)cc1	49%
O=C(O)CC(NC(=O)C(c1ccccc1)c1ccccc1)c1ccco1 (stereo unspecified)	-9%
CCCN1CCC[C@@H]2Cc3nc(N)ncc3C[C@H]21	5%
CCCCCn1c(=O)c(-c2nc3ccccc3c(=O)[nH]2)c(O)c2ccccc21	7%
Oc1c(C(c2cccs2)N2CCC3(CC2)OCCO3)sc2ncnn12 (stereo unspecified)	20%
CCc1cccc(NC(=O)CN(C)S(=O)(=O)c2cnc[nH]2)c1	2%
Cc1nn(CCC#N)c2nc(C(F)(F)F)[nH]c(=O)c12	2%

# Continued.
compound	AmpC nodet inh
CCOC(=O)C1CCN(S(=O)(=O)c2cccc(-c3csc(C)n3)c2)CC1	44%
CN(C)c1ncc2nc(-c3cc(F)cc(F)c3)c(=O)n(C)c2n1	-8%
Cc1ccc2c(CC(=O)N3CCc4ccccc43)coc2c1	-8%
CC1=NN(c2ccccc2)C(=O)[C@@H]1N=Nc1ccc(S(N)(=O)=O)cc1	5%[5.75 µM]
Cn1c(SCC(=O)N2CCCc3ccccc32)nnc1-c1cccs1	6%
COC(=O)C1=C(C)N=C2SCCC(=O)N2C1c1cccs1 (stereo unspecified)	14%
O=C(c1noc2c1CCCC2)N1CCCCC1	-6%
Cc1cccc(N2CCN(C(=O)c3ccncc3)CC2C)c1 (stereo unspecified)	10%
Cc1cc(NC(=O)CSc2nc3cc4c(cc3c(=O)n2CCc2ccccc2)OCO4)no1	u
NCC(=O)N[C@H](CO)C(=O)O	0%[5.75 µM]
CCCCC(=O)Nc1ccc(C(=O)N2CCN(C)CC2)cc1	-5%
O=C1C(=O)N(CCO)C(c2cccc(F)c2)/C1=C(\O)c1ccc(Cl)cc1 (stereo unspecified)	-10%
CCc1nc2scc(-c3ccccc3)c2c(=O)n1N	-6%
O=C(O)CC1SC(=O)N(Cc2ccccc2)C1=O (stereo unspecified)	0%
O=C(CSc1nc2ccccc2c(=O)n1Cc1ccco1)c1ccccc1	-22%
Oc1c(Cl)cc(Cl)c2c1NCCC2	u
CCSc1nc(C)c(CC)c(C)c1C(N)=O	5%
CC1(C)Cn2c(nnc2-c2ccccc2)S1	-3%
CCn1c(SCC(=O)Nc2nc3ccc(OC)cc3s2)nc2c1c(=O)n(C)c(=O)n2C	141%
Cc1ncsc1CCCl	6%
CCNc1ncc2nc(-c3ccccc3)c(=O)n(CCC#N)c2n1	12%
O=C(CSCC(=O)N1CCOCC1)Nc1ccccc1	-9%
CCOC(=O)C1CCN(S(=O)(=O)c2ccc(Br)c(OCC)c2)CC1	47%
Cc1ccc(NC(=O)COC(=O)c2ccnn2C)cc1	-5%
NC12CC3CC(C1)CC(CO)(C3)O2	-5%

# Structural class, those above with a tert-butyl group (2)
compound	AmpC nodet inh
CC(C)(C)c1nc(SCC(=O)NCc2ccco2)c2ccccc2n1	30%
CC(C)(C)C(=O)C(CO)(Oc1ccc(Cl)cc1)n1cncn1 (stereo unspecified)	17%

# Other structures:
compound	AmpC nodet inh
CCCNS(=O)(=O)c1ccc(CCC(=O)Nc2ccc3c(c2)OCO3)cc1	-8%
O=C1Nc2ccc(S(=O)(=O)N3CCCCCC3)c3cccc1c23	8%
COc1ccc(CNc2nc3c(c(=O)n(Cc4ccc(Br)cc4)c(=O)n3C)n2C)cc1	26%
Cc1ccccc1N1C(=O)CC(N2CCC(C(N)=O)CC2)C1=O (stereo unspecified)	7%
CCN1CCN(c2nc3c(c(=O)[nH]c(=O)n3C)n2CCCSc2ncccn2)CC1	8%
CCCCSc1nnc(CCCCCNC(=O)OC(C)(C)C)o1	74%
O=C(Nc1ccc(OC(=O)c2cccs2)cc1)c1ccco1	-25%
COc1cccc(C2NC(=O)NC(C)=C2C(=O)Nc2cccc(C)c2C)c1 (stereo unspecified)	4%
CCn1c(C(C)NC(=O)Cc2ccccc2)nc2ccccc21 (stereo unspecified)	9%
COc1ccccc1-c1nnc2sc(COc3ccc(F)cc3)nn12	33%

# Rewritten field by field: entries from further up
CCn1c(C(C)NC(=O)Cc2ccccc2)nc2ccccc21 (stereo unspecified)
  AmpC nodet inh: 9%

COc1ccccc1-c1nnc2sc(COc3ccc(F)cc3)nn12
  AmpC nodet inh: 33%

# The list is partial; the hit share may differ from the screen's.
